# FGF22 binding = binders of human FGF22 protein, primary screen, FGF22 synaptogenesis inhibitor project, biophysical, thermal shift, single point. calls only at 9.99 µM. AID 651658, 2012. recombinant FGF22 thermal shift, SYPRO orange fluorescence; percent of sucrose octasulfate shift, DMSO zero. 340,000 tested, 1.5% active. Fibroblast growth factor 22 (Homo sapiens), Q9HCT0;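 active means melting point raised past a set limit in the mean and every replicate; three in four hits are not shown here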
# Target sequence (Q9HCT0 whole entry, looked up): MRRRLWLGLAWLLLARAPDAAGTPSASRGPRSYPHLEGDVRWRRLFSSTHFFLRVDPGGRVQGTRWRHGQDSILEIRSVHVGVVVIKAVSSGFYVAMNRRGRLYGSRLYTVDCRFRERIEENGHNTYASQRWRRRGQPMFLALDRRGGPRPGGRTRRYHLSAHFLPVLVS
# HNF4A DNA FP = change in binding of human HNF4A to DNA, primary screen, biochemical, fluorescence polarization, FITC-DNA; 1 h; activity change, % at 10 µM; 360,000 tested, 0.3% active; AID 1224865, 2016; in the data active means activity change above about 30%, passing the limit was not always enough;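 further: controls were the assay level and a saturating level of protein; the project sought stronger binding though the title names inhibitors; some compounds called inactive have numbers as strong as hits; positive values seem to mean higher polarization but the record does not say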
# Target sequence (P41235 whole entry, looked up): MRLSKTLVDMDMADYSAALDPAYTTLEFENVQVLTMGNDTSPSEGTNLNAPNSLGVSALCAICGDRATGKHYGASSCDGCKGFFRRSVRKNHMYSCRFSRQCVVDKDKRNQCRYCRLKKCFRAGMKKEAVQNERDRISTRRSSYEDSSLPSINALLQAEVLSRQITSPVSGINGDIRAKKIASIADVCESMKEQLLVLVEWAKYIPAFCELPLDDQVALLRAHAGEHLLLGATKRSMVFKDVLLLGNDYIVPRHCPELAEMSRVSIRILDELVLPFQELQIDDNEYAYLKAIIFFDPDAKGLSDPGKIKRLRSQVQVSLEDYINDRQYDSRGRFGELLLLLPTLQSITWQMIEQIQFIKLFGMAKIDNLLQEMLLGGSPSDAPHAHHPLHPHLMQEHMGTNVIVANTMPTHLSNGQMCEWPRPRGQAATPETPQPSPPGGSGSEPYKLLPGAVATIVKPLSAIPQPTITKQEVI
# * marks the source's active call; other numbers are inactive results; i = inactive. An excerpt. The share of hits here may be higher or lower than overall.
SMILES,FGF22 binding,HNF4A DNA FP
O=C(COC(=O)/C=C/c1ccc(Cl)cc1)NC1CCS(=O)(=O)C1 (stereo unspecified),i,-1.5
Cc1ccc(C)c(C(=O)COC(=O)c2cc(S(=O)(=O)N3CCOCC3)ccc2F)c1,i,2.2
CC1(C(=O)Nc2cccc(NS(C)(=O)=O)c2)CCN1CCc1ccccc1 (stereo unspecified),i,3.5
N#Cc1ccsc1NC(=O)CSc1nnc(NC2CC2)s1,i,1.5
COc1ccc(C(=O)Nc2nnc([C@@H]3C[C@H](O)[C@@H](CO)O3)s2)cc1,i,3.0
OC(c1ccc(F)c(F)c1)c1nc(-c2cccc3cccnc23)cs1 (stereo unspecified),i,1.1
c1ccc2c(c1)COc1c3cc4c(cc3nn1-2)OCO4,i,5.3
COc1cccc(-c2cnc(C(O)c3cc(C)cc(C)c3)[nH]2)c1 (stereo unspecified),i,0.4
Cc1ccc(S(=O)(=O)N2C[C@@H](C)[C@]3(C2)[C@H](O)[C@H](OC(=O)NCc2ccccc2F)C[C@H]2C(=O)N(c4ccccc4)C(=O)[C@H]23)cc1,i,-3.5
O=C(c1ccc(C(F)(F)F)cc1)N(CCCn1ccnc1)C(c1ccccn1)c1nc2ccccc2[nH]1 (stereo unspecified),i,-1.5
C[C@@H]1CN([C@@H](C)CO)S(=O)(=O)c2ccc(/C=C/c3ccccc3)cc2O[C@@H]1CN(C)Cc1ccc(C(=O)O)cc1,i,0.3
CCCCCCn1c(=O)n2n(c1=O)[C@@H]1CN(S(=O)(=O)c3ccc(C)cc3)C[C@]1(O)[C@@H](OC(=O)Nc1c(C)noc1C)C2,i,2.1
CC1(C(=O)NS(=O)(=O)c2ccc(F)cc2F)CCN1C(=O)c1ccco1 (stereo unspecified),i,-0.5
Cc1ccc(CNC(=O)C2CCC(=O)N(Cc3cccc(F)c3)C2)s1 (stereo unspecified),i,2.3
C[C@H]1CN(Cc2ccccc2)C(=O)[C@@H]1CC(=O)Nc1ccccc1,i,-0.5
O=C(CSc1nc2ccc(F)cc2c(=O)n1-c1ccccc1)Nc1ccc2c(c1)CCC2,i,-1.7
N#Cc1ccc(-c2nc3ccc(Br)cn3c2Cc2ccsc2)cc1,i,-1.0
O=C(Nc1ccc(OCc2ccccc2)cc1)Nc1nnc([C@@H]2C[C@H](O)[C@@H](CO)O2)s1,i,-1.8
O=c1[nH]c(=S)[nH]c2c1C(C1CCCCC1)OC(C1CCCCC1)C2 (stereo unspecified),i,0.5
Cc1ccc(-c2nc3cc(C)c(Br)c(C)n3c2Cc2ccsc2)cc1,i,0.2
COc1ccccc1CNc1nc(NCc2ccccc2OC)c2sccc2n1,i,1.2
CC(=O)N(C(C)=O)c1ccc(Oc2ccc(Oc3ccc(N(C(C)=O)C(C)=O)cc3)cc2)cc1,i,0.1
Cc1c(C)c2cc(Cl)c(OCC(=O)NCCCN3CCCC3=O)cc2oc1=O,i,-3.2
CN(Cc1cn(Cc2ccccc2)nn1)C1CN(Cc2cn(Cc3ccccc3)nn2)S(=O)(=O)C1 (stereo unspecified),i,1.0
CCc1nc2ccc(C(=O)Nc3ccc(OC)c(OC)c3)cn2c1N(C)C(=O)c1cccc(OC)c1,i,1.6
COC(=O)[C@@]1(Sc2ccc(C)cc2)CC(=O)N(C(=O)c2ccccc2)[C@@H]1c1ccccc1,i,-2.9
Cc1cc(C)c2c(=O)n3c(nc2c1)C(Cc1ccccc1)NC(=O)c1cc2ccccc2cc1-3 (stereo unspecified),i,0.8
O=C(Nc1nccs1)c1cnc2sccn2c1=O,i,1.6
Cc1ccc(F)c(S(=O)(=O)NC(=O)C2(C)CCN2C(=O)c2ccccc2)c1 (stereo unspecified),i,2.8
COC(=O)c1ccc2nc(-c3ccccc3)c(Cc3ccc(OC)cc3C)n2c1,i,10.4
CCOC(=O)[C@]12CCCC=C1N(CCC1=CCCCC1)C(=O)[C@H](CC(=O)NCCCCc1ccccc1)C2,i,-1.8
COc1ccc(-c2n[nH]nc2C2=CC(=O)CC(C)(C)C2)cc1,i,1.0
COc1cc(CN2CCC(C(=O)NC(c3ccccc3)c3ccsc3)CC2)cc(OC)c1 (stereo unspecified),i,-0.1
CCc1nc2c(OCc3ccc(F)c(F)c3)cccn2c1N(C)C(=O)c1ccncc1,i,-1.9
Cc1cc(C(=O)N2CCC(C)(C(=O)NS(=O)(=O)C3CC3)C2)n(C(C)(C)C)n1 (stereo unspecified),i,3.4
Cc1cccc(C(C)C)c1NC(=O)COC(=O)CCC(=O)N(CC(C)C)c1c(N)n(CC(C)C)c(=O)[nH]c1=O,i,-0.4
CCc1nc2c(OCc3cc(Cl)cc(Cl)c3)cccn2c1N(C=O)Cc1ccc(OC)cc1,i,1.4
CSc1ccc(NC(=O)C2(C)CCN2C(=O)c2sccc2C)cc1 (stereo unspecified),i,-3.5
O=C1CCC(C(=O)N2CCN(c3cnccn3)CC2)CN1CCc1ccccc1 (stereo unspecified),i,1.4
C[C@H]1CN([C@@H](C)CO)S(=O)(=O)c2ccc(Br)cc2O[C@@H]1CN(C)C(=O)Nc1ccc2c(c1)OCO2,i,0.8
COc1c(C)cc(C(O)c2ncc(-c3ccc4ccccc4c3)[nH]2)cc1C (stereo unspecified),i,2.0
Nc1ccn([C@@H]2O[C@H](C(=O)NCCc3ccc(F)cc3)[C@@H](O)[C@H]2O)c(=O)n1,i,3.3
CCOC(=O)[C@]12CCCC=C1N(CCc1ccc(OC)c(OC)c1)C(=O)[C@H](CC(=O)NCCc1ccccc1OC)C2,i,-9.2
C[C@H]1CN([C@@H](C)CO)C(=O)c2cc(Br)cnc2O[C@H]1CN(C)S(=O)(=O)c1cccs1,i,-2.5
COc1ccc(NC(=O)c2cc(-c3cc(F)ccc3OCC3CCCO3)n[nH]2)cc1OC (stereo unspecified),i,1.2
Cc1cccc(-c2n[nH]nc2C2=CC(=O)CC(C)(C)C2)c1,i,-5.3
O=C(Nc1ccn(CCOC(=O)c2ccccc2)c(=O)n1)c1ccccc1,i,0.5
CC(=O)Nc1ccc(-c2ccnc3c2CC(C)(C(=O)NC(C)C)O3)cc1 (stereo unspecified),i,1.4
COc1cccc(CN2CCC2(C)C(=O)Nc2cccc3cccnc23)c1F (stereo unspecified),i,2.5
C=C1C(=O)[C@]23C[C@H]1CC[C@H]2[C@]1(C)[C@@H](OC(C)=O)CC[C@@](C)(C(=O)O)[C@H]1C[C@@H]3O,i,-1.0

# Arranged by value in HNF4A DNA FP (rising): 3 of the compounds above.
compound	HNF4A DNA FP
CCOC(=O)[C@]12CCCC=C1N(CCc1ccc(OC)c(OC)c1)C(=O)[C@H](CC(=O)NCCc1ccccc1OC)C2	-9.2
COc1c(C)cc(C(O)c2ncc(-c3ccc4ccccc4c3)[nH]2)cc1C (stereo unspecified)	2.0
Nc1ccn([C@@H]2O[C@H](C(=O)NCCc3ccc(F)cc3)[C@@H](O)[C@H]2O)c(=O)n1	3.3

# (continued)
SMILES,FGF22 binding,HNF4A DNA FP
CCN1C(=O)[C@H]2[C@@H](c3ccc(C(F)(F)F)cc3)N[C@]3(CCCN(Cc4cccn4C)C3=O)[C@H]2C1=O,i,-0.4
O[C@H]1CN(CC2CCCCC2)[C@@H](c2ccccc2)C[C@@H]1n1cc(C2CC2)nn1,i,-6.9
Cc1ccc(-c2cnc(C(O)c3cc(Cl)cc(Cl)c3)[nH]2)cc1 (stereo unspecified),i,2.0
N#CCCN(Cc1ccccc1)C(c1ccnc2ccccc12)c1nnnn1-c1ccc2c(c1)OCCO2 (stereo unspecified),i,-4.2
CC(C)Oc1ccc(CN2CCC2(C)C(=O)Nc2cccc3cccnc23)cc1 (stereo unspecified),i,-3.5
Cc1ccc(CN2CC(N3CCC(c4ccccc4)CC3)CS2(=O)=O)cc1 (stereo unspecified),i,-2.6
CC1=C(C(=O)N(C)C)CC(CC(=O)NCc2cccs2)C(=O)N1Cc1ccc(C(C)(C)C)cc1 (stereo unspecified),i,-1.1
COc1ccc(-c2cc(=O)c3ccc(O)cc3o2)cc1OC,i,4.2
O=C(NC1CCCCC1)C1c2ccccc2OCC(=O)N1Cc1ccccc1 (stereo unspecified),i,-6.0
COC(=O)[C@]12CCCCC=C1N(CCC1=CCCCC1)C(=O)[C@H](CC(=O)NCc1cccc(C(F)(F)F)c1)C2,i,1.6
C#CCOC(=O)CCCN1C(=O)c2cccc3cccc(c23)C1=O,i,-8.3
O=C(NCc1nnnn1-c1ccc(F)cc1)c1ccc(S(=O)(=O)N2CCOCC2)cc1,i,0.9
COc1ccc(-n2nnnc2C(c2cc3ccccc3o2)N2CCN(C/C=C/c3ccccc3)CC2)cc1 (stereo unspecified),i,-3.2
CSc1ccc(CN2CCC2(C)C(=O)Nc2cccc(NS(C)(=O)=O)c2)cc1 (stereo unspecified),i,2.0
COc1ccc(-c2cnc3c(NC(C)=O)cc(-c4ccccc4OC)cn23)cc1OC,i,-3.6
CCOc1ccc(CCN2C(=O)C(=O)N([C@@H](CC(C)C)CN3CCC[C@H]3CN3C(=O)C(=O)NC[C@@H]3CC(C)C)C[C@@H]2CC(C)C)cc1,i,0.7
COC(=O)c1ccc2nc(-c3ccc(Cl)cc3)c(Cc3ccc(OC)cc3C)n2c1,i,16.7
Cc1ccc(C(=O)OCC(=O)Nc2cc(Cl)ccc2C#N)o1,i,-4.8
CC(C)n1ncc2c(C(=O)N3CCN(S(=O)(=O)c4cccc(F)c4)CC3)cc(C3CC3)nc21,i,0.2
CCc1ccc(/C=C2/SC(=S)N(CCCC(=O)Nc3cccc(C(=O)O)c3)C2=O)cc1,i,-2.6
Cc1ccccc1CNC(=O)c1ccc2nc([C@@H]3O[C@H](CO)[C@H](O)[C@H](O)[C@H]3O)[nH]c2c1,i,-2.1
COc1ccc(S(=O)(=O)N2CCC[C@H]2C(=O)N2CCC[C@H]2C(=O)N(C)Cc2ccccc2)cc1C,i,-1.4
CC(C)C[C@H]1COc2cc(N3CCC[C@H]3CO)ccc2S(=O)(=O)N1,i,-5.9
Cc1c(NC(=O)c2cc3ccccc3o2)cccc1-n1cnnn1,i,-0.6
O=NN(CCF)C(=O)NC1CCS(=O)(=O)CC1,i,6.0
O=C1CCc2cc(S(=O)(=O)Nc3cccc(Cl)c3)ccc2N1,i,-3.0
O=C(NCCc1ccccc1F)c1[nH]c(C(F)(F)F)nc1-c1ccccc1,i,2.5
CCOc1ccccc1NC(=O)C(OC(=O)c1cnc(C)cn1)c1ccccc1 (stereo unspecified),i,0.4
Cc1nc2c(=O)[nH]n(C)c2nc1C,i,1.8
CC(C)(C)OC(=O)NCCc1nc(NC(=O)OCc2ccccc2)sc1C(=O)O,i,3.3
CC1(c2nnnn2-c2ccc3c(c2)OCCO3)CCC(=O)N1CCc1ccc(O)cc1 (stereo unspecified),i,0.5
COc1ccc(-c2nc3cc(C)c(Br)c(C)n3c2Cc2cccc(F)c2)cc1OC,i,0.8
CCCCC(=O)NC(c1ccc(OC)cc1)c1ccc2cccnc2c1O (stereo unspecified),i,-1.5
c1ccc(CCNc2cc(-c3ccc4ccccc4c3)nc3ccnn23)nc1,i,-1.7
COc1ccccc1C(=O)NC1CC2CCCC(C1)N2Cc1ccccc1 (stereo unspecified),i,1.3
CN(CC(=O)Nc1ccc(F)cc1)C(=O)CN1C(=O)NC(CCc2ccccc2)C1=O (stereo unspecified),i,0.5
Cn1c(NCCN2CCCC2)nc2cc(-c3ccsc3)sc2c1=O,i,5.7
Cc1cccnc1C(NC(=O)C1CCN(CCOc2ccc(F)cc2)CC1)c1ccc(F)cc1 (stereo unspecified),i,-2.4
O=C(c1ccc(CSc2ccc(Cl)cc2)o1)N1CCOCC1,i,0.6
O=C(NC1CCCC1)C(C1CC1)n1c(C2CC2)nc2ccccc21 (stereo unspecified),i,1.3

# Arranged by length of the SMILES (rising): 5 of the compounds above.
SMILES,FGF22 binding,HNF4A DNA FP
O=C(c1ccc(CSc2ccc(Cl)cc2)o1)N1CCOCC1,i,0.6
COc1ccccc1C(=O)NC1CC2CCCC(C1)N2Cc1ccccc1 (stereo unspecified),i,1.3
c1ccc(CCNc2cc(-c3ccc4ccccc4c3)nc3ccnn23)nc1,i,-1.7
CC1(c2nnnn2-c2ccc3c(c2)OCCO3)CCC(=O)N1CCc1ccc(O)cc1 (stereo unspecified),i,0.5
Cc1cccnc1C(NC(=O)C1CCN(CCOc2ccc(F)cc2)CC1)c1ccc(F)cc1 (stereo unspecified),i,-2.4

# (further entries)
SMILES,FGF22 binding,HNF4A DNA FP
CCCc1c(-c2ccc(F)cc2)ncn1CCc1ccccc1OC,i,5.7
Cc1cc2nc(-c3cccc(Cl)c3)c(CC3CCCCC3)n2c(C)c1Br,i,5.5
CC(=O)C[C@@H]1OC[C@H](Cc2ccccc2)N1S(=O)(=O)c1ccc(C)cc1,i,2.2
COc1ccc(C(=O)NCCCN2CCCC2=O)cc1S(=O)(=O)N1CCOCC1,i,0.2
C[C@@H](NC(=O)c1ncn2c1c(=O)[nH]c1cccnc12)c1ccccc1,i,-3.6
O=C(Nc1ccccc1)c1cc(C2CCCCN2S(=O)(=O)c2ccc(F)cc2F)on1 (stereo unspecified),i,1.7
CC1(C(=O)NS(=O)(=O)c2cccc(OC(F)F)c2)CCN1C(=O)CC(c1ccccc1)c1ccccc1 (stereo unspecified),i,1.2
CCc1cc(-c2cnnn2Cc2ccccc2)ccc1-c1cn(CC(C)C)nn1,i,5.8
O=C(NC1CCCC1)C(c1ccccc1)n1c(-c2cccs2)nc2ccccc21 (stereo unspecified),i,-2.4
CN1CCN(C2CN(Cc3cn(Cc4ccccc4C(F)(F)F)nn3)S(=O)(=O)C2)CC1 (stereo unspecified),i,2.9
Cn1cc(CN2CCC(n3nccc3NC(=O)c3ccc4c(c3)OCO4)CC2)cn1,i,6.2
CC(=O)c1cccc(-c2ccnc3c2CC(C(=O)NCC2CC2)O3)c1 (stereo unspecified),i,1.1

# Two records drawn at random from the list so far:
SMILES,FGF22 binding,HNF4A DNA FP
CC(=O)C[C@@H]1OC[C@H](Cc2ccccc2)N1S(=O)(=O)c1ccc(C)cc1,i,2.2
O=C(NC1CCCC1)C(c1ccccc1)n1c(-c2cccs2)nc2ccccc21 (stereo unspecified),i,-2.4
